# Bioassay records deposited in PubChem by several laboratories.
# RGS16-Gao HTS: RGS16-Galphao interaction regulator (human); O15492+P09471; binding response (% of control), % at 10 µM; bead-based flow cytometry RGS16-Galphao binding, fluorescence; actives lie on both sides; 220,000 compounds, 0.38% hits;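 active means below 25% or above 175%, edge rows of some plates excepted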;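 further: Galphao activated by GDP with aluminum fluoride before binding; 100% = wells without compound and 0% = beads without RGS; some results beyond the cut were filed as inactive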
# HSV augment: increases HSV replication in cells. HSV replication augmentation in cells, fold increase. maximum fold increase. 220,000 compounds, 0.005% hits. AID 1956;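 active means peak rise of 1.5-fold or more in the series; tested in PC3 cells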;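 further: first round at 10 µM; read as green reporter fluorescence; hits show the peak of a series up to 25 µM; 1 = signal of infected wells without compound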
# HSV augment primary fold: second read-out of HSV augment, no call of its own (marks repeat the call); fold increase; compound at 10 µM; measured here: primary screen fold increase 10 uM; tested in PC3 cells;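 GFP signal in the first replicate; 1 = infected wells without compound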
# The depositor's hits bear a star; i = inactive; · = no result given. A portion of the library, so the mix of outcomes need not match the whole.
COc1cc2c(cc1OC)C(=O)C(CC1CCN(Cc3ccccc3)CC1)C2 (stereo unspecified)
  RGS16-Gao HTS: 102	HSV augment: ·	HSV augment primary fold: ·

CCCn1cnc2c1c(=O)n(CCCCC(C)=O)c(=O)n2C
  RGS16-Gao HTS: ·	HSV augment: i	HSV augment primary fold: 1

CC1COc2c(N3CCN(C)CC3)c(F)cc3c(=O)c(C(=O)O)cn1c23 (stereo unspecified)
  RGS16-Gao HTS: ·	HSV augment: i	HSV augment primary fold: 0.62

Cc1cc(Nc2cc(N3CCN(C)CC3)nc(Sc3ccc(NC(=O)C4CC4)cc3)n2)n[nH]1
  RGS16-Gao HTS: ·	HSV augment: i	HSV augment primary fold: 0.52

C=CC1=C(C(=O)O)N2C(=O)[C@@H](NC(=O)/C(=N\O)c3csc(N)n3)[C@H]2SC1 (stereo in doubt)
  RGS16-Gao HTS: ·	HSV augment: i	HSV augment primary fold: 0.91

CC12CCC(CC1)C(C)(C)O2
  RGS16-Gao HTS: ·	HSV augment: i	HSV augment primary fold: 0.92

COc1ccc(C(=O)NCc2ccc(OCCN(C)C)cc2)cc1OC
  RGS16-Gao HTS: ·	HSV augment: i	HSV augment primary fold: 0.83

# Some of the entries so far, with values ahead of the structure:
RGS16-Gao HTS | HSV augment | HSV augment primary fold | Structure
· | i | 0.52 | Cc1cc(Nc2cc(N3CCN(C)CC3)nc(Sc3ccc(NC(=O)C4CC4)cc3)n2)n[nH]1
· | i | 0.91 | C=CC1=C(C(=O)O)N2C(=O)[C@@H](NC(=O)/C(=N\O)c3csc(N)n3)[C@H]2SC1 (stereo in doubt)
· | i | 0.92 | CC12CCC(CC1)C(C)(C)O2
